HIV Env fusion: blocks HIV Env-driven cell-cell fusion | HeLa-JRFL Env/CEM21 cell fusion, luciferase | inhibition, % at 12.3 µM | actives 1.1% (n = 360,000) | AID 651610;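 active means mean replicate inhibition score of at least 50 and every replicate individually at or above 50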;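 further: 0% = plate neutral controls and 100% = maraviroc near 300 nM; one replicate is shown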
Yeast UUG start: modulators of start codon recognition fidelity in yeast; S. cerevisiae UUG-firefly luciferase reporter, luminescence/redox ratio; activity score, % at 18.7 µM; actives 0.13% (n = 350,000); AID 602363;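 active means replicate mean at a twofold rise or more, about +100% in these data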;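 further: firefly luciferase made from a UUG start codon reports start codon fidelity; reporter light over untreated wells divided by growth signal over untreated wells; some hits fall short of that in this replicate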
* marks the source's active call; other numbers are inactive results; [ ] = another dose, or the depositor's remark. Only part of the results is shown, so the mix of outcomes need not match the whole.

SMILES | HIV Env fusion | Yeast UUG start
CCCNC(=O)N(C)C[C@H]1Oc2ncc(C#CC3CCCCC3)cc2C(=O)N([C@@H](C)CO)C[C@H]1C | -10[16.7 µM] | 21
CCCN(C)C[C@H]1OCCCC[C@H](C)Oc2ccc(NS(=O)(=O)c3ccc(Cl)cc3)cc2C(=O)N([C@H](C)CO)C[C@H]1C | -8[16.7 µM] | 10
CCCC(=O)Nc1ccc2c(c1)OC[C@@H](C)N(S(=O)(=O)c1cn(C)cn1)C[C@@H](C)[C@H](OC)CN(C)C2=O | -5[16.7 µM] | 4
C[C@H](CO)N1C[C@H](C)[C@@H](CN(C)C(=O)Nc2cccc3ccccc23)Oc2ccc(NS(=O)(=O)c3cccs3)cc2CC1=O | 9[16.7 µM] | 13
C[C@@H]1CCCCO[C@H](CN(C)Cc2ccccc2)[C@H](C)CN([C@H](C)CO)C(=O)c2cc(NS(=O)(=O)c3ccc(Cl)cc3)ccc2O1 | 16[16.7 µM] | 18
COc1ccc(NC(=O)N(C)C[C@H]2OCCCC[C@H](C)Oc3ccc(NC(=O)NC4CCCCC4)cc3C(=O)N([C@H](C)CO)C[C@@H]2C)cc1 | -33[16.7 µM] | -12
Cc1ccc(S(=O)(=O)N(C)C[C@@H]2OCCCC[C@H](C)Oc3ccc(NS(C)(=O)=O)cc3C(=O)N([C@H](C)CO)C[C@@H]2C)cc1 | -22[16.7 µM] | 12
COc1ccc(NC(=O)Nc2ccc3c(c2)C(=O)N([C@H](C)CO)C[C@H](C)[C@H](CN(C)C)OCCCC[C@H](C)O3)cc1 | 10[16.7 µM] | 5
O=C(Nc1cccc(F)c1)N[C@H]1CC[C@@H](CCn2cc(Cc3ccccc3)nn2)O[C@@H]1CO | -2[16.7 µM] | -15
C[C@H]1CCCCO[C@H](CN(C)C(=O)Nc2ccc(C(F)(F)F)cc2)[C@@H](C)CN([C@@H](C)CO)C(=O)c2cc(NC(=O)c3ccccc3)ccc2O1 | 75*[16.7 µM] | -11
CO[C@@H]1CN(C)C(=O)c2ccc(NS(=O)(=O)c3ccc(Cl)cc3)cc2OC[C@H](C)N(C)C[C@@H]1C | -5[16.7 µM] | -4
C[C@H]1CN([C@@H](C)CO)C(=O)c2cc(C#CC3CCCCC3)cnc2O[C@@H]1CN(C)C(=O)NC1CCCC1 | -45[16.7 µM] | 32
CNC(=O)C[C@H]1CC[C@@H]2[C@@H](COc3ccc(NC(=O)c4cccs4)cc3C(=O)N2C)O1 | 22[16.7 µM] | 1
C[C@H](CO)N1C[C@H](C)[C@H](CN(C)Cc2ccc(Oc3ccccc3)cc2)Oc2c(NS(=O)(=O)c3ccccc3)cccc2C1=O | 20[16.7 µM] | 6
Cc1noc(C)c1S(=O)(=O)N(C)C[C@@H]1OCCCC[C@@H](C)Oc2ccc(NS(=O)(=O)c3ccccc3)cc2C(=O)N([C@@H](C)CO)C[C@H]1C | -4[16.7 µM] | 1
C[C@H](CO)N1C[C@H](C)[C@@H](CN(C)C)Oc2cc(-c3ccc(F)cc3)ccc2S1(=O)=O | 3[16.7 µM] | -12
CCC(=O)Nc1ccc2c(c1)OC[C@H](C)N(Cc1cccc(F)c1)C[C@H](C)[C@H](OC)CN(C)C2=O | 4[16.7 µM] | -9
CCCNC(=O)C[C@@H]1CC[C@H]2[C@H](COc3ccc(NC(=O)COC)cc3C(=O)N2C)O1 | 3[16.7 µM] | 4
Cc1ccc(S(=O)(=O)N(C)C[C@@H]2Oc3c(NC(=O)Nc4ccc5c(c4)OCO5)cccc3C(=O)N([C@@H](C)CO)C[C@@H]2C)cc1 | -4[16.7 µM] | -24
Cc1noc(C)c1NC(=O)NCC[C@H]1CC[C@@H](NC(=O)c2ccncc2)[C@H](CO)O1 | 14[16.7 µM] | -2
CCCN(C)C[C@@H]1OCCCC[C@@H](C)Oc2ccc(NC(=O)CCCN(C)C)cc2C(=O)N([C@H](C)CO)C[C@@H]1C | 1[16.7 µM] | -11
C[C@H](CO)N1C[C@H](C)[C@H](CN(C)S(=O)(=O)c2cn(C)cn2)OCCCC[C@H](C)Oc2ccc(NS(=O)(=O)c3ccc(Cl)cc3)cc2C1=O | -18[16.7 µM] | -12
COc1ccc(-c2cn(CC[C@@H]3CC[C@@H](NC(=O)Cc4ccccn4)[C@H](CO)O3)nn2)cc1 | -14[16.7 µM] | -7
COc1ccc(S(=O)(=O)Nc2ccc3c(c2)C(=O)N([C@H](C)CO)C[C@H](C)[C@@H](CN(C)C(=O)Nc2ccc4c(c2)OCO4)OCCCC[C@H](C)O3)cc1 | -38[16.7 µM] | 12
COCCNC(=O)C[C@H]1C=C[C@H](NC(=O)NC2CCCCC2)[C@@H](CO)O1 | 6[16.7 µM] | -5
Cc1noc(C)c1NC(=O)Nc1ccc2c(c1)C(=O)N([C@@H](C)CO)C[C@H](C)[C@H](CN(C)S(=O)(=O)c1ccc(F)cc1)O2 | -15[16.7 µM] | -8
COc1ccc(CN(C)C[C@@H]2Oc3c(NC(=O)Nc4ccc5c(c4)OCO5)cccc3C(=O)N([C@@H](C)CO)C[C@H]2C)cc1 | -33[16.7 µM] | 4
COC(=O)C[C@H]1CC[C@@H]2[C@@H](COc3ccc(NC(=O)Nc4ccc(Cl)cc4)cc3C(=O)N2C)O1 | 40[16.7 µM] | -6
C[C@@H]1CN([C@H](C)CO)C(=O)c2cc(NS(=O)(=O)c3ccc(Cl)cc3)ccc2O[C@@H](C)CCCCO[C@@H]1CN(C)C | 7[16.7 µM] | 18
C[C@@H]1CN([C@H](C)CO)C(=O)CCCn2cc(nn2)CO[C@H]1CN(C)S(=O)(=O)c1ccc(Cl)cc1 | 11 | 15

Looked up above:
Under Yeast UUG start, Cc1ccc(S(=O)(=O)N(C)C[C@@H]2Oc3c(NC(=O)Nc4ccc5c(c4)OCO5)cccc3C(=O)N([C@@H](C)CO)C[C@@H]2C)cc1 reads -24
Under HIV Env fusion, COc1ccc(-c2cn(CC[C@@H]3CC[C@@H](NC(=O)Cc4ccccn4)[C@H](CO)O3)nn2)cc1 reads -14[16.7 µM]

(continued)
SMILES | HIV Env fusion | Yeast UUG start
C[C@@H]1CN([C@@H](C)CO)C(=O)c2cc(NC(=O)C3CCCCC3)ccc2O[C@@H](C)CCCCO[C@@H]1CN(C)C(=O)Nc1ccc(C(F)(F)F)cc1 | 10[16.7 µM] | -13
C[C@H]1CN([C@@H](C)CO)C(=O)Cc2cc(N(C)C)ccc2O[C@@H]1CN(C)S(C)(=O)=O | 7[16.7 µM] | -4
CCC(=O)Nc1ccc2c(c1)C(=O)N(C)C[C@H](OC)[C@@H](C)CN(Cc1ccccc1OC)[C@@H](C)CO2 | 13[16.7 µM] | -15
O=S(=O)(N[C@H]1CC[C@H](CCn2cc(C3(O)CCCC3)nn2)O[C@@H]1CO)c1ccc(Cl)cc1 | 21[16.7 µM] | 9
C[C@@H]1CN([C@H](C)CO)C(=O)c2cccc(NC(=O)C3CCOCC3)c2O[C@H]1CN(C)C(=O)NC1CCCCC1 | 4[16.7 µM] | 10
CCCC#Cc1cnc2c(c1)C(=O)N([C@H](C)CO)C[C@H](C)[C@@H](CN(C)C(=O)c1ccccc1)O2 | -13[16.7 µM] | 10
Cc1noc(C)c1S(=O)(=O)Nc1ccc2c(c1)C(=O)N([C@@H](C)CO)C[C@H](C)[C@H](CN(C)C(=O)C1CCCCC1)OCCCC[C@H](C)O2 | -31[16.7 µM] | 8
C[C@@H]1CCCCO[C@@H](CN(C)C(=O)c2ccccc2)[C@H](C)CN([C@@H](C)CO)C(=O)c2cc(NS(=O)(=O)c3ccc(Cl)cc3)ccc2O1 | -33[16.7 µM] | 5
C[C@H]1CN([C@@H](C)CO)C(=O)c2cccc(NS(C)(=O)=O)c2O[C@H]1CN(C)Cc1ccc(C(F)(F)F)cc1 | -5[16.7 µM] | 1
C[C@@H]1CN([C@@H](C)CO)C(=O)c2cc(NS(=O)(=O)c3ccccc3)ccc2O[C@@H](C)CCCCO[C@@H]1CN(C)C(=O)Nc1ccc(F)cc1 | 4[16.7 µM] | 25
C[C@@H]1CN([C@@H](C)CO)C(=O)c2cc(NC(=O)Cn3cnnn3)ccc2O[C@@H]1CN(C)S(C)(=O)=O | -1[16.7 µM] | -13
CCC(=O)N(C)C[C@H]1Oc2ncc(C#CCC3CCCC3)cc2C(=O)N([C@H](C)CO)C[C@@H]1C | 7[16.7 µM] | 6
CO[C@@H]1CN(C)C(=O)c2ccc(NS(=O)(=O)c3ccc(C)cc3)cc2OC[C@H](C)N(C)C[C@@H]1C | 5[16.7 µM] | 8
C[C@@H]1CN([C@@H](C)CO)S(=O)(=O)c2ccc(C#C[C@@H](C)O)cc2O[C@H]1CN(C)Cc1ccccc1 | -17[16.7 µM] | 0
O=C(NCc1cccc(Cl)c1)C1Cc2c(-c3ccccc3Oc3ccccc3)ccnc2O1 (stereo unspecified) | 19 | -8

Profiles, looked up by structure. Screens in order: HIV Env fusion | Yeast UUG start
Shown for `CCCC(=O)Nc1ccc2c(c1)OC[C@@H](C)N(S(=O)(=O)c1cn(C)cn1)C[C@@H](C)[C@H](OC)CN(C)C2=O` : -5[16.7 µM] | 4
Shown for `COCCNC(=O)C[C@H]1C=C[C@H](NC(=O)NC2CCCCC2)[C@@H](CO)O1` : 6[16.7 µM] | -5
Shown for `COc1ccc(S(=O)(=O)Nc2ccc3c(c2)C(=O)N([C@H](C)CO)C[C@H](C)[C@@H](CN(C)C(=O)Nc2ccc4c(c2)OCO4)OCCCC[C@H](C)O3)cc1` : -38[16.7 µM] | 12

More results follow.
SMILES | HIV Env fusion | Yeast UUG start
C[C@H]1CN([C@@H](C)CO)C(=O)c2cc(Br)cnc2O[C@H]1CN(C)C(=O)Nc1ccc(F)cc1 | -2[16.7 µM] | -8
C[C@@H]1CN([C@@H](C)CO)C(=O)Cc2cc(NC(=O)Nc3cccc4ccccc34)ccc2O[C@H]1CN(C)Cc1ccccc1 | 1[16.7 µM] | -3
C[C@H](CO)N1C[C@H](C)[C@H](CN(C)C(=O)c2cnccn2)Oc2cc(C3=CCCC3)ccc2S1(=O)=O | 5[16.7 µM] | 4
O=C(Cc1ccncc1)Nc1ccc2c(c1)[C@@H]1C[C@H](CC(=O)N3CCOCC3)O[C@@H](CO)[C@@H]1O2 | -22[16.7 µM] | 1
Cc1noc(C)c1NC(=O)Nc1ccc2c(c1)CC(=O)N([C@@H](C)CO)C[C@@H](C)[C@H](CN(C)CC1CCCCC1)O2 | -35[16.7 µM] | -3
C/C=C/c1ccc2c(c1)O[C@@H](CN(C)C(=O)CC)[C@H](C)CN([C@H](C)CO)S2(=O)=O | 3[16.7 µM] | 4
Cc1ccccc1-c1ccc2c(c1)O[C@@H](CN(C)C(=O)Nc1ccccc1)[C@H](C)CN([C@H](C)CO)S2(=O)=O | -21[16.7 µM] | -8
Cc1noc(C)c1NC(=O)NCC[C@@H]1CC[C@@H](NC(=O)c2ccncc2)[C@H](CO)O1 | 10[16.7 µM] | -7
C[C@@H](NC(=O)C[C@@H]1CC[C@H](NC(=O)Cc2ccccn2)[C@@H](CO)O1)c1ccccc1 | 20[16.7 µM] | -12
C[C@@H]1CN([C@@H](C)CO)C(=O)c2cc(NC(=O)CCCN(C)C)ccc2O[C@@H](C)CCCCO[C@@H]1CN(C)S(=O)(=O)c1cn(C)cn1 | -8[16.7 µM] | -5
C[C@@H]1CN([C@H](C)CO)C(=O)c2cc(-c3ccc(F)cc3)cnc2O[C@@H]1CN(C)Cc1ccc(F)cc1 | 9[16.7 µM] | -11
C[C@H]1CN([C@@H](C)CO)C(=O)c2cc(/C=C/c3ccccc3)cnc2O[C@@H]1CN(C)C(=O)C1CCC1 | -9[16.7 µM] | 1
COc1ccccc1C#Cc1cnc2c(c1)C(=O)N([C@H](C)CO)C[C@@H](C)[C@H](CN(C)C(C)=O)O2 | 22[16.7 µM] | 8
C[C@@H]1CN([C@H](C)CO)C(=O)c2cc(NC(=O)NC3CCCCC3)ccc2O[C@H]1CN(C)Cc1ccc2c(c1)OCO2 | -6[16.7 µM] | 0
C[C@H]1CN([C@@H](C)CO)C(=O)c2cc(NC(=O)Nc3ccc(F)cc3)ccc2O[C@H]1CN(C)Cc1ccncc1 | 1[16.7 µM] | -12
C[C@@H]1CN([C@@H](C)CO)C(=O)Cc2cc(NS(=O)(=O)c3ccc(F)cc3)ccc2O[C@@H]1CN(C)C(=O)Nc1ccc(C(F)(F)F)cc1 | -25[16.7 µM] | 2
C[C@@H]1CCCCO[C@H](CN(C)C(=O)C2CCCCC2)[C@H](C)CN([C@H](C)CO)C(=O)c2cc(NC(=O)Nc3cccc4ccccc34)ccc2O1 | 8[16.7 µM] | -9
Cc1ccc(S(=O)(=O)Nc2ccc3c(c2)C(=O)N([C@@H](C)CO)C[C@H](C)[C@H](CN(C)Cc2ccc(C(=O)Nc4ccccc4N)cc2)O3)cc1 | -103[16.7 µM] | 15
CCCC#Cc1ccc2c(c1)O[C@@H](CN(C)C(=O)c1ccncc1)[C@@H](C)CN([C@@H](C)CO)S2(=O)=O | -3[16.7 µM] | -9
C[C@H](CO)N1C[C@H](C)[C@@H](CN(C)C(=O)C2CC2)Oc2cc(/C=C/c3ccccc3)ccc2S1(=O)=O | 10[16.7 µM] | -4
CN(C)C(=O)C[C@@H]1C=C[C@H](NC(=O)NC2CCCC2)[C@H](CO)O1 | 2[16.7 µM] | 0

Arranged by count of non-hydrogen atoms (low to high): 3 of the compounds above
SMILES | HIV Env fusion | Yeast UUG start
C[C@@H]1CN([C@@H](C)CO)C(=O)Cc2cc(NS(=O)(=O)c3ccc(F)cc3)ccc2O[C@@H]1CN(C)C(=O)Nc1ccc(C(F)(F)F)cc1 | -25[16.7 µM] | 2
Cc1ccc(S(=O)(=O)Nc2ccc3c(c2)C(=O)N([C@@H](C)CO)C[C@H](C)[C@H](CN(C)Cc2ccc(C(=O)Nc4ccccc4N)cc2)O3)cc1 | -103[16.7 µM] | 15
C[C@@H]1CCCCO[C@H](CN(C)C(=O)C2CCCCC2)[C@H](C)CN([C@H](C)CO)C(=O)c2cc(NC(=O)Nc3cccc4ccccc34)ccc2O1 | 8[16.7 µM] | -9

Bioassay records: PubChem, Broad Institute
